Screening data: PubChem BioAssay, National Center for Advancing Translational Sciences (NCATS)
Marburg entry inh: blocks Marburg virus binding to or entry into cells | Marburg virus pseudotyped entry inhibition, cell reporter; control for the full effect not named in the record; about a third of the inactives were read at about 46 µM | Potency, µM (top dose mostly 37.8 µM), without a hit: top-dose activity change, negative = inhibition, actives largely listed as inhibitors | 1.8% of 300,000 active; active = well fitted inhibition curve with a large enough effect; inconclusive = small, poorly fitted or top-dose-only effect, or effect the other way; inactive = flat fitted curve, though single readings scatter; tested in HEK293 cells; about a fifth of its hits are not listed in these tables; further: on the % scale 0 is the no-effect control and ±100 the full control effect; luciferase read-out
2A StopGo: FMDV 2A StopGo reporter, luciferase signal | human cells with a luciferase reporter of 2A StopGo recoding; control for the full effect not named in the record | Potency, µM (series often up to 57.9 µM), without a hit: at the highest dose signal change, negative = less light | 1.2% of 410,000 active | AID 1159524; active = well fitted falling curve with a large enough effect; inconclusive = small, poorly fitted or top-dose-only effect; inactive = no such curve, though single readings can be large or run the other way; tested in HEK293T cells; further: on the % scale 0 is the no-effect control and ±100 the full control effect; nearly all actives have a fitted effect of over 45% in size; luciferase light after 4 h
NS1 inh: influenza NS1 inhibition; S. cerevisiae slowed by influenza A NS1, growth recovery by OD600; Potency, µM (top dose mostly 46.1 µM), without a hit: at the top dose activity, positive = more growth; 0.4% of 270,000 active; active means well fitted rising curve with a large enough effect; inconclusive means small, poorly fitted or top-dose-only effect; inactive means no such curve, though single readings can be large or run the other way; further: nearly all actives have a fitted effect of over 50% in size
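S. cerevisiae expressing influenza A NS1, grown in glucose, washed, then diluted 1:100 into pH 6.0 -URA galactose medium with 23 nl compound. Growth recovery read as OD600; NS1-free strain serves as control.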
SARS PLpro yeast: blocks SARS-CoV papain-like protease in a yeast assay; S. cerevisiae expressing SARS-CoV PLpro, growth rescue; control for the full effect not named in the record; Potency, µM (doses to about 32.9 µM), inactives show at the top dose activity, positive = growth rescue; 0.19% of 330,000 active; active means well fitted rising curve with a large enough effect; inconclusive means small, poorly fitted or top-dose-only effect; inactive means no such curve, though single readings can be large or run the other way; further: 0% is about no effect; nearly all actives have a fitted effect of over 55% in size; growth read by luminescence after 48 h
RE007 growth inh: less growth of the S. pombe RE007 Vpr strain | AID 651644 | Potency, µM (series often up to 92.2 µM), for inactives: at the highest dose activity change, negative = less growth | 0.21% of 360,000 active | S. pombe RE007 Vpr strain, BacTiter-Glo ATP luminescence, 24 h; control for the full effect not named in the record; active = well fitted falling curve with a large enough effect; inconclusive = small, poorly fitted or top-dose-only effect; inactive = no such curve, though single readings can be large or run the other way;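 further: on the % scale 0 is the no-effect control and ±100 the full control effect; nearly all actives have a fitted effect of over 50% in size; the assay follows cell death caused by Vpr and the record does not say whether a fall means rescue or toxicity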
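Fission yeast RE007 carrying one integrated HIV-1 vpr copy, seeded at OD 0.01 in PMG+AL medium with 23 nL pinned compound. Grown 24 h at 30 degrees; viability read by BacTiter-Glo luminescence after 5 min.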
Cruzain inh noDet: blocks cruzain activity in detergent-free assay; purified cruzain, Z-FR-AMC fluorescence, no detergent; Potency, µM, without a hit: max response, negative = inhibition, usual class: inhibitors; 2.3% of 200,000 active;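 further: plate controls were enzyme without inhibitor for no effect and buffer without enzyme for full effect; nearly all actives have a fitted effect of over 40% in size; top concentration of the series not given in the record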
Target sequence (P25779 123-467 limits assumed): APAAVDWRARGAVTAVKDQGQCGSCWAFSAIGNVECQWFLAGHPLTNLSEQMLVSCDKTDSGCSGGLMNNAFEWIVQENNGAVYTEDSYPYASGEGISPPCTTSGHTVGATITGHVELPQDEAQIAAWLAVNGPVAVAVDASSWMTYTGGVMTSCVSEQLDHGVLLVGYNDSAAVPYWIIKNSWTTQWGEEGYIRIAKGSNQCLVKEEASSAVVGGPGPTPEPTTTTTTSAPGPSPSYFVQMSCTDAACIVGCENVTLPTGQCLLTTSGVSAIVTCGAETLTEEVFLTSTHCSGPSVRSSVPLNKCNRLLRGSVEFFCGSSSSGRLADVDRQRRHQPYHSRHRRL
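Detergent-free condition (0.00005% Triton X-100) in acetate buffer pH 5.5 with DTT. 1.5 nM enzyme and compound were pre-mixed 15 min, then 2 uM Z-FR-AMC substrate added; reaction progress from fluorescence change between first and third reads (60 s).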
Cruzain Triton: inhibitors of Trypanosoma cruzi cruzain with detergent; P25779; purified cruzain, Z-FR-AMC fluorescence, 0.01% Triton; Potency, µM, for the others: max response, negative = inhibition, most hits filed as inhibitors; 0.43% of 200,000 active; AID 1478;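 further: plate controls were neutral wells for no effect and buffer without enzyme for full effect; nearly all actives have a fitted effect of over 40% in size; top concentration of the series not given in the record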
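Compounds were screened in titration against cruzain (1.5 nM) with 0.01% Triton X-100 to counter colloidal aggregation. Activity was the AMC fluorescence increase over 60 s after adding 2 uM Z-FR-AMC at pH 5.5.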
LASV entry inh: inhibitors of Lassa virus binding or cell entry | 1.2% of 300,000 active | Potency, µM (doses to about 37.9 µM), for inactives: at the top dose activity change, negative = inhibition, hits mostly inhibitors | Lassa virus pseudotype entry inhibition, cell reporter; control for the full effect not named in the record; active means well fitted inhibition curve with a large enough effect; inconclusive means small, poorly fitted or top-dose-only effect, or effect the other way; inactive means flat fitted curve, though single readings scatter; tested in HEK293 cells; further: on the % scale 0 is the no-effect control and ±100 the full control effect; nearly all actives have a fitted effect of over 50% in size; luciferase read-out
Numbers without * were called inactive; u = inconclusive; x = not tested or not shown; & = joins results of further samples; [ ] = remark or other dose. Unless noted, the call rests on the fitted dose curve; in most records, active means well fitted curve in the direction sought with a large enough effect; inconclusive means small, poorly fitted or top-dose-only effect, or another doubt; inactive means no such curve, though single readings can be large; an effect the other way counts as inactive or inconclusive. Potency means the concentration at half of the fitted maximal effect.

smiles	Marburg entry inh	2A StopGo	NS1 inh	SARS PLpro yeast	RE007 growth inh	Cruzain inh noDet	Cruzain Triton	LASV entry inh
COc1ccc(N(C(C)C(=O)N/N=C/c2ccc(OCC(C)C)cc2)S(C)(=O)=O)cc1 (stereo not given)	u	-17.9%	-16.3%	-33.9%	x	u	-12.3%	u
Cc1noc(C)c1S(=O)(=O)N(CC(=O)Nc1ccc2c(c1)OCO2)c1ccc(C(C)C)cc1	x	-27.2%	-17.7%	3.0%	2.7%	-7.3%	-6.9%	x
Cc1cccc(NC(=O)c2cc([N+](=O)[O-])ccc2NC2CCCCC2)c1	8.7%	-13.2%	-1.8%	-3.6%	-4.6%	u	-7.6%	-16.0%
CN(c1ccccc1C(=O)Nc1ccccc1C(=O)NCc1ccco1)S(C)(=O)=O	8.6%	6.4%	-8.0%	1.9%	22.0%	2.2%	-7.5%	8.0%
O=C(COC(=O)c1cccs1)Nc1cc(S(=O)(=O)N2CCOCC2)ccc1Cl	16.1%[46.1 µM]	-10.7%	-10.2%	-1.0%	20.3%	x	x	-0.9%
COc1ccc(C(=O)Nc2ccc3c(c2)nc(CN2CCN(C(C)=O)CC2)n3C)cc1	9.3%	-5.1%	-4.6%	-0.9%	-8.1%	-3.3%	0.4%	-15.2%
CCC1CN(C(=O)C2CCN(S(=O)(=O)c3c(C)noc3/C=C/c3ccccc3F)CC2)c2cc(Cl)ccc2O1 (stereo not given)	x	-11.8%	x	x	x	3.16µM*	-2.5%	8.6%[46.1 µM]
Cc1ccc(S(=O)(=O)CCC(=O)Nc2nc(-c3ccncc3)cs2)cc1	x	u	-3.2%	14.2%	5.1%	x	x	x
Cc1cc(/C=N/n2cnnc2)c(C)n1-c1ccc(Cl)cc1	u	0.0%	-5.9%	-10.5%	37.1%	-2.9%	-4.4%	-19.7%
CC1CC(C)CN(C(=O)C2CCCN(S(=O)(=O)c3cccc4nonc34)C2)C1 (stereo not given)	-27.0%	u	4.7%	x	12.1%	-10.6%	-3.1%	0.1%
Cc1cc(C(=O)N2CCCC(C(=O)c3ccc(Oc4ccccc4)cc3)C2)n[nH]1 (stereo not given)	x	u	-120.0%	-40.7%	-2.6%	x	x	x
CCC(C)NC(=O)C1CCN(S(=O)(=O)c2ccc(OC)cc2)CC1 (stereo not given)	3.1%	-1.0%	-23.2%	-1.8%	-3.5%	2.3%	2.7%	-16.7%
O=C(COC(=O)/C=C/c1cccc(F)c1)Nc1ccc(Cl)cn1	0.7%	-11.6%	x	1.1%	-7.9%	x	x	2.8%
CCNC(=O)C1CC(=O)N(c2ccc(Br)cc2)C1 (stereo not given)	-4.5%	7.3%	1.7%	6.3%	32.3%	8.9%	3.6%	12.8%
CN(C)C(CNC(=O)c1ccc(S(=O)(=O)Nc2cccc(C(F)(F)F)c2)cc1)c1ccco1 (stereo not given)	-20.1%	16.0%	x	x	-9.5%	x	x	16.7%
CCN(CC)S(=O)(=O)c1ccc(O)c(NS(=O)(=O)c2ccccc2F)c1	11.9%	-4.0%	2.8%	-7.9%	-6.3%	-1.8%	4.8%	-1.9%
CCCOc1ccc(S(=O)(=O)NCCCN2CCOCC2)c2ccccc12	u	15.2%	1.9%	3.7%	1.8%	-10.7%	-1.0%	-2.5%
Clc1ccc(SCc2cn3ccccc3n2)cc1	u	0.0%	x	-0.7%	-2.8%	x	x	3.3%[46.1 µM]
CC1(OC(=O)C2CCCC2)C(=O)C=C2C=C(c3ccsc3)N(Cc3ccccc3)C=C2C1=O (stereo not given)	11.7%&11.7%[14.2 µM]	-4.0%	7.5%	-0.3%	-2.8%	x	x	x
COc1ccc2cc1Oc1ccc(cc1)C[C@H]1c3cc(c(OC)cc3CCN1C)Oc1c(O)c(OC)cc3c1[C@H](C2)N(C)CC3	x	-18.9%	-11.6%	0.7%	3.5%	x	x	x

(further entries)
smiles	Marburg entry inh	2A StopGo	NS1 inh	SARS PLpro yeast	RE007 growth inh	Cruzain inh noDet	Cruzain Triton	LASV entry inh
CNC(=O)c1c(NC(=O)c2cccc(N3C(=O)CCC3=O)c2)sc2c1CCCC2	5.7%[46.1 µM]	-10.9%	-6.1%	0.2%	2.8%	x	x	-1.9%
COc1ccc(CCNC(=O)CN(c2ccc(C)cc2)S(=O)(=O)c2c(C)noc2C)cc1OC	-5.8%	-24.4%	-15.4%	2.2%	-13.7%	u	-2.0%	-20.8%
O=[N+]([O-])c1cccc2c(S(=O)(=O)N3CCOCC3)cccc12	u	-1.5%	-31.7%	-11.4%	-7.4%	x	x	8.9%[46.1 µM]
c1coc(-c2nc3n(n2)C2(CCCCC2)[C@@H]2CCCC[C@@H]2N3)c1	5.7%[46.1 µM]	-23.2%	x	x	x	-4.0%	-4.4%	14.7%[46.1 µM]
CC(C)C(NS(=O)(=O)c1cccc2nsnc12)C(=O)NC1CCCCC1C (stereo not given)	x	-22.9%	7.5%	19.9%	-6.0%	x	x	x
CCOC(=O)N1CCN(C(=O)c2oc(=O)c3ccccc3c2-c2ccc(C)cc2)CC1	0.0%	-8.8%	-27.2%	0.5%	-5.4%	2.9%	1.0%	x
N#CCCN(C(=O)CSc1ccc2c(c1)OCCO2)c1ccccc1	7.7%	15.5%	-7.3%	9.8%	-11.4%	-5.2%	-0.9%	-5.6%
CCN1CCN(C(=O)C2c3cc(OC)c(OC)cc3C(=O)N(C)C2c2ccc(SC)cc2)CC1 (stereo not given)	-4.8%&-4.8%	-19.4%	-4.4%	-1.3%	1.2%	0.7%	0.4%	-7.0%
Cc1ccccc1NC(=O)C1CCN(C2=NS(=O)(=O)c3ccccc32)CC1	4.5%	-16.0%	x	1.1%	10.6%	x	x	0.7%
Cc1cc2[nH]c(=O)c(=O)[nH]c2cc1S(=O)(=O)N1CCC(C)CC1	x	-10.0%	-5.6%	1.4%	-1.2%	x	x	x
Cc1ccc(-c2nc3ncccc3o2)cc1NC(=O)c1cccnc1	x	-19.3%	6.7%	-0.2%	-3.3%	x	x	x
Cc1ccc(S(=O)(=O)N(C)C)cc1NC(=O)c1cc(-c2ccco2)nc2ccccc12	u	-17.1%	-28.2%	-7.0%	13.1%	x	x	u
O=C(NCCc1nc2ccccc2[nH]1)c1cccc(Br)c1	0.8%[46.1 µM]	-24.4%	4.8%	4.0%	-5.6%	x	x	2.5%
CCCCN(C)C(=O)c1nc2ccccn2c1CN1CCSCC1	x	46.1%[activator]	-1.3%	0.0%	10.1%	x	x	x
COc1cc(/C=N/Nc2ccc(Cl)c(C(=O)O)c2)ccc1OC(=O)c1ccccc1F	-38.0%[46.1 µM]	-28.2%	8.1%	1.3%	10.4%	x	x	u
CC(C)C(NC(=O)/C(=C\c1ccco1)NC(=O)c1ccco1)C(=O)O (stereo not given)	x	-9.8%	u	7.1%	-3.1%	x	x	x
O=C(NC(Cc1ccccc1)C(=O)O)/C(=C/c1cccc([N+](=O)[O-])c1)NC(=O)c1ccco1 (stereo not given)	-3.4%[46.1 µM]	-8.5%	11.8%	-1.1%	4.4%	x	x	-16.1%[46.1 µM]
Cc1nc2sc(C(=O)N(C)Cc3ccccc3)c(NC(=O)c3ccccc3)c2c(C)c1Cl	u	u	x	x	x	-4.4%	1.4%	31.3%[46.1 µM]
O=C(CSc1ccc(Cl)cc1)OCc1nnc(-c2ccccc2)o1	2.8%	1.9%	-16.3%	-6.9%	-23.8%	-2.5%	-9.9%	8.7%
CC(C)C(NC(=O)c1ccc(F)cc1)C(=O)Nc1cccnc1 (stereo not given)	4.3%[46.1 µM]	3.1%	x	-0.4%	-11.3%	x	x	2.8%

Later entries
smiles	Marburg entry inh	2A StopGo	NS1 inh	SARS PLpro yeast	RE007 growth inh	Cruzain inh noDet	Cruzain Triton	LASV entry inh
O=C(CSc1nc2c([nH]c3ccccc32)c(=O)n1-c1ccc(Cl)cc1)N1CCCCCC1	x	-32.6%	x	x	x	4.9%	3.2%	-21.3%[46.1 µM]
COc1ccc(CC(=O)NCCc2csc(-c3ccc(Cl)cc3)n2)cc1	x	-25.7%	x	x	x	27.0%	-2.0%	-25.8%[46.1 µM]
CCOC(=O)c1nnc(-c2cccs2)nc1Oc1ccc(Cl)cc1	2.1%[46.1 µM]	28.2µM*	-5.0%	14.5%	23.2%	-2.8%	-0.2%	5.4%
COc1cc(NC(=O)Cn2ncc(Cl)c(Cl)c2=O)c(C)cc1[N+](=O)[O-]	7.08µM*	12.6µM*	x	-3.3%	-4.5%	x	x	u
Cc1cc(-c2cccs2)n[nH]1	4.3%	0.5%	-1.5%	-1.1%	-1.4%	0.1%	0.5%	2.2%

A draw from above in order of molar mass, lowest first:
smiles	Marburg entry inh	2A StopGo	NS1 inh	SARS PLpro yeast	RE007 growth inh	Cruzain inh noDet	Cruzain Triton	LASV entry inh
Cc1cc(-c2cccs2)n[nH]1	4.3%	0.5%	-1.5%	-1.1%	-1.4%	0.1%	0.5%	2.2%
Cc1ccc(-c2nc3ncccc3o2)cc1NC(=O)c1cccnc1	x	-19.3%	6.7%	-0.2%	-3.3%	x	x	x
CCC(C)NC(=O)C1CCN(S(=O)(=O)c2ccc(OC)cc2)CC1 (stereo not given)	3.1%	-1.0%	-23.2%	-1.8%	-3.5%	2.3%	2.7%	-16.7%

Nothing new here: entries from further up.
smiles	Marburg entry inh	2A StopGo	NS1 inh	SARS PLpro yeast	RE007 growth inh	Cruzain inh noDet	Cruzain Triton	LASV entry inh
COc1ccc(N(C(C)C(=O)N/N=C/c2ccc(OCC(C)C)cc2)S(C)(=O)=O)cc1 (stereo not given)	u	-17.9%	-16.3%	-33.9%	x	u	-12.3%	u
Cc1noc(C)c1S(=O)(=O)N(CC(=O)Nc1ccc2c(c1)OCO2)c1ccc(C(C)C)cc1	x	-27.2%	-17.7%	3.0%	2.7%	-7.3%	-6.9%	x
Cc1cccc(NC(=O)c2cc([N+](=O)[O-])ccc2NC2CCCCC2)c1	8.7%	-13.2%	-1.8%	-3.6%	-4.6%	u	-7.6%	-16.0%
